# eIF4H FP inh = inhibitors of RNA binding by human eIF4H; eIF4H fluorescence polarization binding assay; inhibition, % at 35 µM; 290,000 compounds, 0.94% hits; AID 2012;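 active means 50% or more with normal probe brightness, or confirmed in later tests; about a fifth of its hits are not listed in these tables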;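 further: calls also rest on retests at 20 µM and on dose response follow-up; 0% = protein and probe with vehicle and 100% = probe without protein; strong numbers were not always called active; many hits fall short of the cut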
# Yeast UUG start = alters start codon recognition fidelity in yeast. AID 602363. activity score, % at 18.7 µM. 350,000 compounds, 0.13% hits. S. cerevisiae UUG-firefly luciferase reporter, luminescence/redox ratio;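 active means replicate mean at a twofold rise or more, about +100% in these data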;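 further: firefly luciferase made from a UUG start codon reports start codon fidelity; reporter light over untreated wells divided by growth signal over untreated wells; some hits fall short of that in this replicate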
# Rce1 inh = yeast Ras-converting enzyme inhibition; 290,000 compounds, 0.27% hits; calls only; yeast membranes, quenched prenylated peptide cleavage fluorescence; AID 2563; Q03530;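 active means fall in fluorescence gain of 50% or more versus controls, with final raw signal at or below 3038400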;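 further: plate controls were neutral control wells for no effect and wells lacking membranes for full effect; tested at 10 µM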
# Target sequence (Q03530 whole entry, looked up): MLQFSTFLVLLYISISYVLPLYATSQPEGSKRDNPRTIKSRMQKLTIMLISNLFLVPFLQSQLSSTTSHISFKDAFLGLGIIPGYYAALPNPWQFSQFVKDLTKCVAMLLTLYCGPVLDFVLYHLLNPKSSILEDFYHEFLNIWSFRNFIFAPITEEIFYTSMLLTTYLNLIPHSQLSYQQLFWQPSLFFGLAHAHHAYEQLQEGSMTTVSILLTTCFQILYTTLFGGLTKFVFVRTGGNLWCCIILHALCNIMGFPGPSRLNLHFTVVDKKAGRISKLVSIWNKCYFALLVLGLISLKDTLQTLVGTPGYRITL
# MT1-MMP act inh = MT1-MMP (human) activation inhibition; P50281; HT1080 RFP-PRO-GFP cells, GFP/RFP ratio fluorescence, overnight; percent of plate control window, DMSO zero; GFP/RFP ratio change, % at 20 µM; 360,000 compounds, 0.061% hits; AID 651647;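 active means GFP/RFP ratio change of at least 30% with cell ATP level not reduced by more than half and red fluorescence within 50% of control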; further: strong numbers were not always called active
#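 Assay system: HT1080 cells carrying an RFP-PRO-GFP reporter | Dosing: Single dose of 20 µM compound, 1% DMSO final | Incubation: Cells overnight before dosing, compound overnight, 37 °C, 5% CO2 | Evaluation: GFP/RFP fluorescence ratio | Control set: DMSO and RFP-L50D-GFP cell wells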
# HIV Env fusion = HIV envelope-mediated fusion inhibition | HeLa-JRFL Env/CEM21 cell fusion, luciferase | inhibition, % at 12.3 µM | AID 651610 | 360,000 compounds, 1.1% hits;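 active means mean replicate inhibition score of at least 50 and every replicate individually at or above 50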;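 further: 0% = plate neutral controls and 100% = maraviroc near 300 nM; one replicate is shown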
# PABP FP inh = blocks human PABP binding to poly(A) RNA; P11940; fluorescence polarization; inhibition, % at 35 µM; 290,000 compounds, 1% hits; AID 2014;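 active means 50% or more with normal probe brightness, or confirmed in later tests; about a fifth of its hits are not listed in these tables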;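 further: calls also rest on retests at 20 µM and on dose response follow-up; controls were probe without protein and protein plus probe with vehicle; some compounds called inactive have numbers as strong as hits; many hits fall short of the cut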
# CSC inhib = blocks cancer stem cells. cancer stem cell-like cells viability, luminescence. inhibition, % at 7.5 µM. 300,000 compounds, 1.1% hits. AID 2717;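 active means mean at 75% or more and at least half the replicates too; tested in HMLE shEcad cells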;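 further: 0% = median of negative and 100% = median of positive control wells; the first replicate is given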
# eIF4H FP inh retest = also measured in eIF4H FP inh; calls as there; inhibition, %; compound at 20 µM; confirmation average;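 mean of two retest wells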
# PABP FP inh retest = also measured in PABP FP inh; calls as there; inhibition, %; compound at 20 µM; confirmation repeats;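 mean of two retest wells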
# MT1-MMP act inh RFP = also measured in MT1-MMP act inh; calls as there; RFP signal change, %; measured here: RFP expression control read;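 0 = vehicle wells; hits needed this value within 50% of zero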
# The depositor's hits bear a star; i = inactive; x = no result given. Some of the compounds tested; count on the stated rates, not on these rows.
SMILES,eIF4H FP inh,Yeast UUG start,Rce1 inh,MT1-MMP act inh,MT1-MMP act inh RFP,HIV Env fusion,PABP FP inh,CSC inhib,others
C=CCN1C(=NC(=O)CCC)SC2CS(=O)(=O)CC21 (stereo not drawn),-10.6,x,i,1.3,-0.4,-29.3,-9.2,-11.5,
Fc1ccc(-c2cc(C(F)(F)F)nc(-n3cc(Cl)cn3)n2)cc1,-6.3,x,i,-3.6,-4.8,24.9,-9.1,1.1,
CC(C)[C@H](NC(=O)[C@@H]1Cc2ccccc2CN1)C(=O)Nc1ccc2c(c1)OCCO2,-14.4,x,i,0.7,0.9,16.6,-2.6,-11.1,
COc1cccc(C2C(C(=O)c3cc4cccc(OC)c4o3)=C(O)C(=O)N2c2cc(C)on2)c1OC (stereo not drawn),1.6,-17.6,i,4.7,2.6,x,10.8,5.2,
Cc1nn(Cc2ccccc2Cl)c(C)c1NC(=O)/C=C/c1cnn(C)c1,-4.8,-12.0,i,1.0,3.9,-70.7,-3.6,-17.0,
O=C(c1cnc2n(c1=O)CCS2)N1CCCc2ccccc21,1.9,x,i,0.8,2.2,x,3.3,-3.6,
CC1CCC(NC(=O)COC(=O)CNC(=O)c2ccc3ccccc3c2)CC1 (stereo not drawn),x,3.3,x,1.5,3.4,x,x,-5.4,
COc1ccccc1N(CC(=O)NCCN1CCOCC1)S(=O)(=O)c1ccc(C)cc1,x,-12.5,i,-1.8,3.5,3.8,x,-16.1,
CC(C)CCOc1ccc(Cl)cc1CN1CCOCC1,3.2,-13.9,i,0.7,-2.1,x,4.4,54.9,
Cc1cn([C@H]2C[C@H](O)[C@@H](CNCc3ccc(N4CCN(C)CC4)cc3F)O2)c(=O)[nH]c1=O,x,-14.1,x,7.8,6.0,15.2,x,x,
COc1cc2c(cc1OC)C(Nc1ccccc1)=NC(C)(C)C2,7.1,-17.3,i,-6.7,-3.1,20.7,3.4,-7.6,
O=C(Nc1sc2c(c1C(=O)O)CCCC2)c1cccs1,-2.7,-12.0,i,1.3,-0.3,-104.5,37.9,4.8,
CN(C)P(=NC(=O)COc1ccc(Cl)cc1Cl)(N(C)C)N(C)C,-5.3,x,i,-5.2,-8.0,x,8.5,-5.5,
COc1ccnc(CSC(N)=Nc2ccccc2OC)c1,18.8,-18.2,i,0.2,2.7,x,9.9,8.9,
CCOC(=O)N1CCN(Cc2nc3c(c(=O)[nH]c(=O)n3C)n2CCCc2ccccc2)CC1,-0.6,10.4,i,-1.9,-2.0,x,-4.4,-3.9,
O=C(NC1CCN(c2ncccn2)CC1)c1ccccc1Cl,-1.6,-2.7,i,0.7,1.1,13.7,8.3,-3.5,
CC12CN3CC(C)(CN(C1)C3c1cc(Br)ccc1O)C2=O (stereo not drawn),-10.0,-1.1,i,-1.5,0.1,x,-9.6,17.3,
COc1ccc(OC)c(CNC(=O)CCNC(=O)Cn2ccc3ccccc3c2=O)c1,-6.5,-12.9,i,2.1,3.3,2.1,-14.5,-4.6,
Cc1cc(O)c(-c2cc(C(=O)Nc3sc4c(c3C(=O)NCc3ccco3)CCC4)[nH]n2)cc1C,3.9,x,i,0.9,0.6,10.7,10.5,46.8,
CCOc1nc(Nc2cc(Cl)ccc2OC)nc(OCC)n1,-0.1,-6.4,i,-3.2,-2.4,x,32.5,-11.0,
Cc1ccc(NC(=O)COc2cccc3c2OC(C)(C)C3)c(O)c1,x,5.3,x,3.6,-6.3,-12.9,x,x,
CCCNC(=O)c1cc(C2CCCCN2C(=O)c2cc(OC)c(C)c(OC)c2)on1 (stereo not drawn),x,-1.6,x,-0.3,-1.3,0.4,x,x,
C#CCn1cnc2c(oc3ccccc32)c1=O,1.1,-17.6,i,-12.2,-10.7,x,5.8,-31.6,
CCC(c1nnnn1Cc1ccco1)N(CCc1ccccc1)Cc1cc2cccc(C)c2[nH]c1=O (stereo not drawn),15.9,-41.6,i,-11.6,-1.8,x,21.2,18.7,
COCCCNC(=O)C(C#N)c1nc2ccccc2nc1N1CCN(Cc2ccccc2)CC1 (stereo not drawn),29.2,2.2,i,-8.0,-9.7,x,30.3,x,
CN(CC(=O)Nc1ccccc1Br)C(=O)c1ccccc1Cc1ccccc1,x,-5.3,x,0.3,-5.2,x,x,-11.2,
Cc1ccc(-n2c(N)c(C(=O)Nc3c(C)n(C)n(-c4ccccc4)c3=O)c3nc4ccccc4nc32)cc1,12.7,-2.6,i,6.6,-5.5,x,-2.7,-19.3,
COc1cc(/C=N/Nc2nc(C)nc3c2cnn3-c2ccccc2)ccc1O,-10.1,x,x,-1.2,-19.0,-53.9,-5.0,x,
O=C(NC(=S)Nc1ccc(N2CCOCC2)cc1)c1ccc2c(c1)OCCO2,-1.4,-19.1,i,-3.5,-17.3,24.5,8.9,-10.6,
Cc1cc(NC(=O)CSc2nc(=O)cc(N)n2-c2ccc(C)c(C)c2)no1,-19.8,-8.5,i,-2.6,-0.3,6.5,-8.0,6.8,
Cc1ccc(C)c(NC(=O)C2CC(=O)N(C3CCCCC3)C2)c1 (stereo not drawn),-7.1,-6.0,i,-3.5,-5.9,0.0,0.4,-8.0,
Cc1ncn(C23CC4CC(CC(O)(C4)C2)C3)n1,-11.8,-21.5,i,6.8,5.8,21.2,-9.0,6.2,
C/C(=N\NS(=O)(=O)c1ccc(Cl)cc1)c1ccc(NC(=O)c2ccco2)cc1,-6.3,x,i,0.6,0.8,x,-0.5,-11.7,
O=C(/C=C/c1ccccc1)NCCOc1ccccc1,8.5,-0.9,i,0.5,2.6,-18.8,6.9,-5.7,
CS(=O)(=O)Nc1cccc(C2=NN(S(C)(=O)=O)C(c3ccc4c(c3)OCO4)C2)c1 (stereo not drawn),-2.2,x,i,-8.4,-5.9,-52.5,43.5,0.8,
CN(C)C(=O)CCc1ccc2c3c([nH]c2c1)[C@]1(C)[C@@H](C(=O)N2CCOCC2)C[C@H](CC(=O)NCc2ccco2)C(=O)N1CC3,x,-1.0,x,-2.4,-0.3,-12.5,x,x,
CCOC(=O)C(NC(=O)CC)(Nc1ccc(S(N)(=O)=O)cc1)C(F)(F)F (stereo not drawn),3.4,-17.7,i,-0.2,2.3,-81.3,3.3,x,
COc1cccc(CNC(=O)CN2C(=O)c3ccccc3S2(=O)=O)c1,x,1.8,i,6.6,2.1,-1.1,x,-2.1,
O=C(NC1CCCC1)c1ccc(COCC(F)(F)F)o1,6.3,x,i,6.1,-1.8,x,2.8,-11.7,
O=C1NC(=S)N/C1=C/c1cccn1-c1ccc([N+](=O)[O-])cc1,83.5*,x,i,2.6,-0.7,10.5,6.9*,-5.1,eIF4H FP inh retest=96.8*;PABP FP inh retest=57.4*

# Compounds listed so far that contain a thiophene ring, fused or not:
SMILES,eIF4H FP inh,Yeast UUG start,Rce1 inh,MT1-MMP act inh,MT1-MMP act inh RFP,HIV Env fusion,PABP FP inh,CSC inhib,others
O=C(Nc1sc2c(c1C(=O)O)CCCC2)c1cccs1,-2.7,-12.0,i,1.3,-0.3,-104.5,37.9,4.8,
Cc1cc(O)c(-c2cc(C(=O)Nc3sc4c(c3C(=O)NCc3ccco3)CCC4)[nH]n2)cc1C,3.9,x,i,0.9,0.6,10.7,10.5,46.8,

# Pulled by structure from the list above (6):
SMILES,eIF4H FP inh,Yeast UUG start,Rce1 inh,MT1-MMP act inh,MT1-MMP act inh RFP,HIV Env fusion,PABP FP inh,CSC inhib,others
Cc1cc(O)c(-c2cc(C(=O)Nc3sc4c(c3C(=O)NCc3ccco3)CCC4)[nH]n2)cc1C,3.9,x,i,0.9,0.6,10.7,10.5,46.8,
COc1ccccc1N(CC(=O)NCCN1CCOCC1)S(=O)(=O)c1ccc(C)cc1,x,-12.5,i,-1.8,3.5,3.8,x,-16.1,
CC12CN3CC(C)(CN(C1)C3c1cc(Br)ccc1O)C2=O (stereo not drawn),-10.0,-1.1,i,-1.5,0.1,x,-9.6,17.3,
O=C(NC(=S)Nc1ccc(N2CCOCC2)cc1)c1ccc2c(c1)OCCO2,-1.4,-19.1,i,-3.5,-17.3,24.5,8.9,-10.6,
CC1CCC(NC(=O)COC(=O)CNC(=O)c2ccc3ccccc3c2)CC1 (stereo not drawn),x,3.3,x,1.5,3.4,x,x,-5.4,
CN(C)C(=O)CCc1ccc2c3c([nH]c2c1)[C@]1(C)[C@@H](C(=O)N2CCOCC2)C[C@H](CC(=O)NCc2ccco2)C(=O)N1CC3,x,-1.0,x,-2.4,-0.3,-12.5,x,x,

# Additional entries:
SMILES,eIF4H FP inh,Yeast UUG start,Rce1 inh,MT1-MMP act inh,MT1-MMP act inh RFP,HIV Env fusion,PABP FP inh,CSC inhib,others
O=C(CN1C(=O)COc2ccccc21)NCCCN1CCN(Cc2ccccc2)CC1,1.1,-5.5,i,-1.3,1.1,-8.1,-2.1,-2.1,
Cc1ccc(S(=O)(=O)N2CCCCC2CCNC(=O)C(=O)NCC2CCCO2)cc1 (stereo not drawn),x,-8.4,i,-0.2,-4.4,10.6,x,-11.9,
COc1cc(NC(=O)COC(=O)C2CC2)c(C)cc1[N+](=O)[O-],-6.0,x,i,4.2,3.0,-13.2,-12.8,-11.6,
CC(CCc1ccccc1)NC(=O)CCNC(=O)Cn1ccc2ccccc2c1=O (stereo not drawn),5.2,x,i,1.7,-0.9,-5.3,-1.9,-10.1,
COc1ccc(C2c3[nH]c4ccccc4c3C[C@H]3C(=O)N(CCCO)CC(=O)N23)cc1OC (stereo partly drawn),0.4,-17.2,i,-3.0,-1.2,-0.2,-2.5,2.1,
CCNC(=O)C(CCSC)NS(=O)(=O)c1ccc(C)cc1 (stereo not drawn),-7.4,-14.9,i,-4.6,-3.4,5.5,-7.7,4.8,
O=C(CSc1nnc(-c2cccc(F)c2)o1)NC1CCCC1,0.6,-6.2,i,-0.3,0.9,-0.4,0.3,x,
COc1ccc(-c2nc3ccccc3c(=O)n2CCOc2ccc(C)cc2C)cc1,-4.2,-18.6,x,-4.9,-0.7,11.4,7.6,12.9,
COc1ccccc1NC(=O)c1nnn(CC(=O)Nc2cc(C)cc(C)c2)c1N,6.6,-15.2,i,2.4,1.0,9.1,-0.7,-8.3,
COc1cccc(/C=C2\SC(N3CCC(C)CC3)=NC2=O)c1OC,1.3,3.9,i,0.2,-0.8,14.4,-5.9,-6.2,
O=C(C1CCC(CNS(=O)(=O)c2cccs2)CC1)N1CCCCC1 (stereo not drawn),-0.4,-2.7,i,-0.1,-2.6,x,-10.4,-0.2,
Cc1cnc(C(=O)OCC(=O)NC(=O)c2ccccc2)cn1,x,-12.2,i,-5.0,-1.4,0.7,x,-10.6,
CC(NC(=O)CCN1C(=O)c2ccccc2C1=O)c1ccc2c(c1)CCCC2 (stereo not drawn),-4.4,13.7,i,3.1,5.0,-8.5,-4.9,-5.7,
Cc1cccc(-c2noc(-c3c(C)noc3C)n2)c1,-5.2,-12.4,i,1.3,7.7,0.6,-9.4,-10.1,
COc1cc2c(cc1OC)CN(C(=O)c1ccc(S(=O)(=O)N(C)c3ccccc3)cc1)CC2,-4.9,1.3,i,-4.5,-11.8,19.5,-6.1,30.5,
CCC1(c2ccc(F)cc2)NC(=O)N(CC(=O)Nc2cccc(S(=O)(=O)N3CCOCC3)c2)C1=O (stereo not drawn),x,-26.6,x,3.2,5.0,4.7,x,x,
O=c1c(Cl)c(N2CCN(c3ccc(F)cc3)CC2)cnn1C12CC3CC(CC(C3)C1)C2,-11.7,x,i,0.4,-6.1,11.8,-1.5,50.7,
CCCCN(CC)Cc1c(O)ccc2c3c(c(=O)oc12)CCC3,0.6,x,i,0.3,1.5,0.7,-5.8,6.2,
CCN1CCN(Cc2nc(N)nc(Nc3ccc(C)c(C)c3)n2)CC1,2.8,-28.2,i,-3.8,-1.2,-12.5,9.8,-0.1,
CNC(=O)c1ccc(N(Cc2ccccc2C)S(C)(=O)=O)cc1,1.9,x,i,2.7,4.1,-54.1,0.9,x,
